# HSV replic up: increases HSV replication in cells | HSV replication augmentation in cells, fold increase | maximum fold increase | actives 0.005% (n = 220,000);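 active means peak rise of 1.5-fold or more in the series; inconclusive means self-fluorescent or not available for retest; tested in PC3 cells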;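 further: first round at 10 µM; read as green reporter fluorescence; hits show the peak of a series up to 25 µM; 1 = signal of infected wells without compound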
# GALR2 agonist: agonists of human galanin receptor 2 (GALR2); activation, %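 (tested at 5 µM)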; AID 803; GALR2-expressing cells, agonist activation read-out; O43603; actives 0.48% (n = 140,000);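 active means above mean plus 3 SD of all compounds, about 5% in these data, not always enough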;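 further: 0% = vehicle buffer wells and 100% = reference agonist at full effect; tested in CHO reporter cells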
# Insulin prom inh: TRM-6 insulin promoter activity inhibition | TRM-6 cells (human fetal islet line), insulin promoter-eGFP reporter, imaging; reporter expression induced with tamoxifen | inhibition, % at 2 µM | actives 0.9% (n = 130,000);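 active means inhibition above the mean plus 3 SD, with well images judged a real hit on visual review, cut at about 60% in these data, passing the limit was not always enough; inconclusive means inhibition over the cutoff but images rejected on review; inactive means inhibition not above the cutoff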
# PKD1 inh: blocks activity of human protein kinase D1. Q15139. PKD1 kinase fluorescence polarization assay. inhibition, %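 (about 10 µM by stock and volumes)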. actives 0.056% (n = 200,000);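 active means inhibition of 50% or more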;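 further: controls were vehicle for no effect and a reference inhibitor for full effect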
# Target sequence (Q15139 whole entry, looked up): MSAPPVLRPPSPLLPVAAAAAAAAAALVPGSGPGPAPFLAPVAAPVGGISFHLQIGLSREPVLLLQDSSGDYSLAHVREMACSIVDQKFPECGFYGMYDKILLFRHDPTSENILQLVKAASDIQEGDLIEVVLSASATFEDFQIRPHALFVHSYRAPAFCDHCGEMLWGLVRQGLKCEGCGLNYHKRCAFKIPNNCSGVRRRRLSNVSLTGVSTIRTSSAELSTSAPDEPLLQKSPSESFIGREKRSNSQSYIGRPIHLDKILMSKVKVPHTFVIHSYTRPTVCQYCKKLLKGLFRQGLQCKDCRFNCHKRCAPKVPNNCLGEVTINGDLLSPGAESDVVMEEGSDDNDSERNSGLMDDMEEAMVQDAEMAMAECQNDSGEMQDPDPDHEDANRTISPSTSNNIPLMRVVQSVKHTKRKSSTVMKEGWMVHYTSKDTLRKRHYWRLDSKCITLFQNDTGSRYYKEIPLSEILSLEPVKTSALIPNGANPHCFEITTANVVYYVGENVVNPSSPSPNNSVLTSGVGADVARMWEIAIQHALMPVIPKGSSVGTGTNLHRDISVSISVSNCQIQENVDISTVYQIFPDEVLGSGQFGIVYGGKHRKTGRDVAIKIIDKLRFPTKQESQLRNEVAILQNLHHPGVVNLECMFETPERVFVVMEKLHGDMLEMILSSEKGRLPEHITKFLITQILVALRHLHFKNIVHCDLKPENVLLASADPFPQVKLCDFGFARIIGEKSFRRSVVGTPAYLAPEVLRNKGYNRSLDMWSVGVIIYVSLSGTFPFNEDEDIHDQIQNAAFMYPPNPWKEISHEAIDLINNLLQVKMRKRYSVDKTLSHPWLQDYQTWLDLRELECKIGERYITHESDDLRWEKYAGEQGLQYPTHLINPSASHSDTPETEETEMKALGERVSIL
# RGS16-Gao: RGS16-Galphao interaction regulator (human); actives 0.38% (n = 220,000); binding response (% of control), % at 10 µM; bead-based flow cytometry RGS16-Galphao binding, fluorescence; actives lie on both sides;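 active means below 25% or above 175%, edge rows of some plates excepted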;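 further: Galphao activated by GDP with aluminum fluoride before binding; 100% = wells without compound and 0% = beads without RGS; some results beyond the cut were filed as inactive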
# Insulin prom inh cell count: further read-out of Insulin prom inh, marked with its call; normalized cell count, %; measured here: cell count, toxicity; reference of the scale not given here;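 cells exposed to compound for 48 h; stained nuclei by imaging scaled within each plate; lower means fewer cells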
# HSV replic up primary fold: also measured in HSV replic up; calls as there; fold increase; compound at 10 µM; measured here: primary screen fold increase 10 uM; tested in PC3 cells;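 GFP signal in the first replicate; 1 = infected wells without compound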
# An asterisk follows results filed as active; i = inactive; u = inconclusive; x = not tested or not shown. Compounds were not picked by outcome (roughly 1.1% active in at least one column).
nr	SMILES	HSV replic up	HSV replic up primary fold	GALR2 agonist	Insulin prom inh	Insulin prom inh cell count	PKD1 inh	RGS16-Gao
1	CCOc1cc(/C=C2\C(=O)N(c3cccc(C(F)(F)F)c3)C(=O)c3ccccc32)ccc1O	i	1	-2.7	23.1	85.9	-3.0	101.9
2	O=C(C1CCCC1)N1CCN=C1SCc1cccc([N+](=O)[O-])c1	i	0.75	x	45.5	134.3	-6.6	102.3
3	CC(C)(C)NC(=O)CSc1nc(O)cc(=O)n1-c1ccccc1F	i	1.02	-1.9	x	x	-8.7	51.3
4	Cc1ccc(O)c(C(=O)c2coc(=N)c(C(=O)NC(C)C)c2)c1	i	0.84	-1.4	21.6	59.6	-9.3	103.2
5	Cc1ccc(S(=O)(=O)NNC(=S)NCCc2ccccc2)cc1	i	0.96	x	x	x	x	98.2
6	COC(=O)c1cnc2c(C(F)(F)F)cccc2c1OC	i	0.92	-3.1	-393.3	41.1	-9.9	100.3
7	Cc1c(N=C2C=C(Br)C(=O)C(Br)=C2)c(=O)n(-c2ccccc2)n1C	i	1.02	x	-55.6	72.8	-1.7	97.5
8	Cc1ccc(CNC(=O)CN(C)S(=O)(=O)c2cccc3nsnc23)cc1	i	1	1.0	8.3	94.5	-0.5	90.6
9	O=C(CSc1nnnn1C1CCCCC1)Nc1ccccc1N1CCOCC1	i	0.99	x	11.1	135.0	-2.1	101.1
10	O=C(CC12CC3CC(CC(C3)C1)C2)N1CCCC1	i	1.08	-0.3	-16.7	92.6	0.7	102.4
11	Cc1ccccc1CSc1nnc(CCCCCNC(=O)OC(C)(C)C)o1	i	1	x	x	x	x	99.1
12	COc1ccc(/C=C/c2nc3ccccc3n2Cc2ccc(OC)c(OC)c2)cc1	i	0.89	-0.8	29.2	75.7	-6.4	182.0

# One compound at a time (already shown).
# Cc1ccc(O)c(C(=O)c2coc(=N)c(C(=O)NC(C)C)c2)c1 as listed: HSV replic up = i; HSV replic up primary fold = 0.84; GALR2 agonist = -1.4; Insulin prom inh = 21.6; Insulin prom inh cell count = 59.6; PKD1 inh = -9.3; RGS16-Gao = 103.2
# COC(=O)c1cnc2c(C(F)(F)F)cccc2c1OC as listed: HSV replic up = i; HSV replic up primary fold = 0.92; GALR2 agonist = -3.1; Insulin prom inh = -393.3; Insulin prom inh cell count = 41.1; PKD1 inh = -9.9; RGS16-Gao = 100.3

# More results:
nr	SMILES	HSV replic up	HSV replic up primary fold	GALR2 agonist	Insulin prom inh	Insulin prom inh cell count	PKD1 inh	RGS16-Gao
13	COC(=O)C(CCSC)NC(=O)c1cc2c(n(-c3ccc(C)cc3)c1=O)CCCC2=O (stereo unspecified)	i	0.99	x	43.8	100.4	-3.8	99.7
14	CN1CCN(C(=O)c2ccc(N(C)S(=O)(=O)c3cccs3)cc2)CC1	i	0.91	x	x	x	0.0	102.0
15	Cc1cc(N/N=C2/CCCc3ccccc32)nc2ccccc12	i	1.04	x	x	x	-6.1	101.3
16	CCOc1ccc(C(=O)N2CCCN(C(=O)c3ccc(OCC)cc3)CC2)cc1	i	1	-1.3	x	x	-18.6	112.3
17	CCn1cc(SCC(=O)NCc2ccc3c(c2)OCO3)c2ccccc21	i	0.85	-2.7	x	x	4.4	102.5
18	CCOc1ccc(C2NC(=O)c3sc(=S)n(-c4ccccc4)c3N2)cc1 (stereo unspecified)	i	0.99	-1.8	33.3	88.5	3.2	94.2
19	Cc1cc(NS(=O)(=O)c2ccc(NC(=O)c3cc4ccccc4o3)cc2)nc(C)n1	i	0.983	-0.5	39.3	140.7	-0.2	96.7
20	Cc1ccc(NC(=O)c2cccc3c2-c2ccccc2C3=O)cc1C	i	0.93	-2.4	-31.0	112.2	-3.3	98.3
21	CC(C)C(=O)Nc1nnc(Cc2ccccc2)s1	i	0.95	-0.1	35.3	78.5	-3.3	104.4
22	CC(=O)/C(C#N)=C1\NC(=O)C(Cc2ccccc2C)S1 (stereo unspecified)	u	x	x	x	x	x	100.3
23	CCOC(=O)C1CCN(CC(=O)c2c(C)[nH]c3cc(C)ccc23)CC1	i	0.91	-2.1	-53.1	118.1	-15.1	101.7
24	CCOc1ccc(-n2c(=O)c3ccccc3c3ccccc3c2=O)cc1	i	0.94	x	x	x	x	106.0
25	CCCCC(=O)N(CCOC)c1nnc(-c2cccnc2)s1	i	0.97	x	x	x	0.3	101.2
26	C=CCOc1c2ccc(C(=O)NCc3ccccc3OC)cc2nn1C	i	1.15	-1.5	19.4	101.9	7.5	104.2
27	COC(=O)CN1C(=O)N/C(=C/c2cc3c(cc2OC)OCO3)C1=O	i	1.02	x	-5.6	86.3	-3.8	102.6
28	CCOc1ccc(NC(=O)c2ccncc2)cc1	i	0.95	-1.8	5.9	49.6	-2.1	102.1
29	O=C(NC(=S)Nn1cnc2c(cnn2-c2ccccc2)c1=O)c1ccc(Oc2ccccc2)cc1	i	0.94	-1.4	21.6	150.3	-11.8	105.4
30	COc1ccc(-n2nc([N+](=O)[O-])c(=NCc3cccnc3)n2O)cc1	i	0.89	-1.0	6.9	127.5	-6.7	103.5
31	COc1ccc(CNC(=O)COC(=O)/C=C/c2cccc(Br)c2)cc1	i	0.99	x	x	x	-3.1	106.2
32	Cc1nc2cc(-c3sccc3-n3cccc3)nn2c(C)c1C	x	x	0.2	14.0	97.5	-15.1	102.9
33	CC(NC(=O)C1(c2cccs2)CCOCC1)c1ccccc1 (stereo unspecified)	i	1.05	-1.3	30.2	98.1	-5.5	100.8
34	CCOC(=O)c1cnn(-c2sc(C(=O)OCC)c(C)c2C(=O)OCC)c1N	i	1.01	-0.9	-8.3	95.0	1.7	x
35	O=C(COc1ccccc1)Nc1ccccc1NS(=O)(=O)c1cccs1	i	0.86	-0.1	21.4	149.7	0.1	115.5
36	CC(C)Sc1nc(SCC(=O)O)c2c3c(sc2n1)COC(C)(C)C3	i	1	x	x	x	x	103.8
37	COC(=O)c1sc(N)c(C(=O)OC)c1COC(=O)CNS(=O)(=O)c1ccc(C)cc1	i	0.96	-0.4	-48.6	138.3	2.5	88.3
38	COc1cc(OC)cc(C(=O)N[C@H](C(=O)OCC(=O)c2ccc3c(c2)NC(=O)CO3)C(C)C)c1	i	0.87	-4.0	-11.4	116.8	3.9	100.4
39	CCOC(=O)N1CCC(Nc2ncnc3c2cnn3-c2ccccc2)CC1	i	0.96	-1.2	-40.6	65.0	1.6	101.4
40	CC(C)(C)c1ccc(N2C(=O)CSC2c2cccnc2)cc1 (stereo unspecified)	i	1.27	x	x	x	x	100.1
41	CC1=C(C(=O)c2ccccc2)C(c2cccc([N+](=O)[O-])c2)NC(=S)N1 (stereo unspecified)	i	0.96	x	x	x	4.1	99.6
42	O=C1Nc2ccccc2C(O)(C(=O)NC2CC2)N1c1ccc(Cl)c(Cl)c1 (stereo unspecified)	i	1.07	-0.9	-23.1	76.7	9.2	52.9
43	O=C(NNC(=O)C1CC1c1ccccc1)Nc1cccc(Cl)c1 (stereo unspecified)	i	0.67	-3.0	x	x	9.6	100.8
44	COc1ccc(-c2nc3n(c2C)CCC3)cc1	i	1.19	x	x	x	x	99.6
45	N#CC(C(=O)NC1CCCCC1)c1nc2ccccc2nc1N1CCN(c2ccccc2F)CC1 (stereo unspecified)	x	x	-2.4	x	x	-7.9	106.8
46	NC(=O)c1ccsc1NC(=O)c1cccs1	i	0.96	-1.6	x	x	1.8	x
47	CCOC(=O)c1ccc(CNC(=O)CCC(=O)O)cc1	i	0.88	0.6	-10.3	94.7	8.8	107.1
48	O=C1CCCC2=C1Sc1ccccc1N2	i	1.14	x	x	x	x	103.2
49	Cc1cc(Cl)c(S(=O)(=O)Nc2ccc3c(c2)OCO3)cc1OCC(=O)NC1CCCCC1	i	0.67	0.2	-37.9	124.4	2.3	97.0
50	Cc1ccc(-n2ncc3c(SCc4ccccn4)ncnc32)c(C)c1	i	0.72	x	42.9	81.5	-8.3	101.5
51	C=CCCC(=O)Nc1nc(C)c(-c2csc(Nc3cccc(OC)c3)n2)s1	i	0.67	0.0	-35.6	64.9	16.5	100.8
52	CCCCC(=O)NC(=S)Nc1cc(C(=O)O)ccc1OC	i	0.95	x	10.0	67.5	-12.3	107.5
53	CCC(CC)c1nnc(NC(=O)/C=C/c2ccco2)s1	i	1.14	-0.9	-213.3	111.7	-14.0	95.4
54	c1cn(-c2ccc(-c3ccnc4ncnn34)cc2)cn1	i	0.91	x	20.0	109.2	-3.9	99.8
55	CC1(C)CC(=O)C=C(NNC(=O)OC(C)(C)C)C1	i	1	x	x	x	-5.1	118.8
56	Cc1cccc(N2CCN(C(=S)NC3CCCCC3)CC2)c1C	i	0.97	x	x	x	x	100.0
57	CC(CNS(=O)(=O)c1ccccc1)Sc1ncccn1 (stereo unspecified)	i	0.77	x	x	x	x	99.1
58	CCc1nnc(NC(=O)c2nc3nccc(C)n3n2)s1	i	0.79	-3.7	19.4	113.6	-9.0	157.9
59	COc1ccc(CCNC(=O)c2ccc3ccccc3n2)cc1OC	i	0.78	x	x	x	0.7	108.5
60	Cn1c(O)c(C=Nc2ccc(N3CCOCC3)cc2)c(=O)n(C)c1=S	i	1.02	x	x	x	0.2	98.9
61	CC(C)c1ccc(NC(=S)Nc2ccc3[nH]c(=O)[nH]c3c2)cc1	i	0.97	x	x	x	x	104.2
62	Cc1ccc2cc(CN(CCN3CCCC3)C(=O)Nc3ccccc3)c(=O)[nH]c2c1C	i	0.9	-0.8	26.7	55.1	26.1	95.4
63	O=C(c1ccc(Cl)nc1)N1CCC(Cc2ccccc2)CC1	i	0.94	x	x	x	x	108.5
64	Cc1ccc(-n2nc(C(=O)O)cc2-c2ccccc2)cc1	i	0.95	-0.5	31.2	98.8	-7.8	93.4
65	COc1ccc(/C=N/Nc2nc(-c3cccc(S(=O)(=O)N4CCCC4)c3)cs2)c(OC)c1	i	0.98	-0.5	37.5	83.4	-5.1	120.5
66	O=C(c1cn(CC(=O)N2CCCCC2)c2ccccc12)C1CC1	i	0.98	-1.2	x	x	-7.9	109.6
67	Cc1ccc(N(C(C)C(=O)N2CCCCC2)S(C)(=O)=O)cc1C (stereo unspecified)	i	0.64	-0.5	-42.4	119.9	-3.5	100.7
68	O=C(COC(=O)c1ncc(Cl)c(Cl)c1Cl)Nc1ccccc1OC(F)F	i	0.97	-0.5	33.3	119.8	-6.8	70.4
69	CS(=O)(=O)Nc1ccc(S(=O)(=O)N2CCCC2)cc1	i	1.08	x	x	x	3.0	107.5
70	O=C(c1nn2c(C(F)(F)F)cc(-c3cccs3)nc2c1Br)N1CCCc2ccccc21	i	0.94	-1.4	-51.9	68.8	-2.0	92.8
71	CCn1c(C)c(C(C)=O)c(N2CCN(c3ccccn3)CC2)nc1=S	i	1.21	-3.0	-62.5	49.6	0.0	101.8
72	COc1cc(CC(=O)OCC(=O)c2ccc3c(c2)OCCO3)cc(OC)c1OC	i	0.77	0.0	-153.6	13.5	-3.2	96.7

# Next part:
nr	SMILES	HSV replic up	HSV replic up primary fold	GALR2 agonist	Insulin prom inh	Insulin prom inh cell count	PKD1 inh	RGS16-Gao
73	COc1cc(OC)cc(C(=O)NNC(=O)c2ccc(S(=O)(=O)N3CC(C)OC(C)C3)cc2)c1 (stereo unspecified)	i	1.07	x	x	x	-3.9	98.2
74	CCc1cc(/C(Cc2ccc3ccccc3n2)=N\O)c(O)cc1O	i	0.89	-2.7	5.6	74.9	11.7	89.0
75	S=C(c1c[nH]c2ccccc12)N1CCCC1	i	0.91	x	x	x	-2.7	103.1
76	O=C(Nc1ncc(Cc2cccc(Cl)c2)s1)c1ccc([N+](=O)[O-])cc1	i	0.99	-2.1	21.4	129.3	1.3	99.6
77	COC(=O)C1CSC(C(=O)OC)N1C(=O)CN1CCN(c2ccccc2)CC1 (stereo unspecified)	i	0.98	x	x	x	1.8	99.1
78	CCN(CC)C(=O)CSc1nc2ncc(Cl)cc2[nH]1	i	0.91	-0.1	9.1	115.5	1.2	102.0
79	O=c1c2c(nc3cc(-c4ccc(Cl)cc4)[nH]n13)CCS2	i	1.01	-0.6	x	x	-11.5	100.4
80	COCCOc1cc(COC)nc(-c2cccc(C)c2)n1	i	0.95	x	x	x	x	97.4
81	Cc1cccn2c(=O)c(/C=C(\C#N)C(=O)NCc3ccco3)c(N3CCCCC3)nc12	i	0.95	0.8	23.8	133.3	-4.7	102.5
82	O=C(COC(=O)c1cccc(C(=O)OCC(=O)NC2CCCCC2)n1)NC1CCCCC1	i	1.16	-0.4	x	x	0.7	98.3
83	COc1ccc(-c2csc(Nc3ccc(C)cn3)n2)cc1	i	0.99	x	x	x	-1.0	98.8
84	CCCc1nc2ccccc2c(C(=O)OCC(=O)Nc2cccc(S(=O)(=O)N3CCOCC3)c2)c1CC	i	0.72	-1.0	-20.9	136.0	3.8	105.1

# Compound activity: PubChem, several laboratories
